# High-throughput results: PubChem BioAssay, National Center for Advancing Translational Sciences (NCATS)
# VDR inhibitor: blocks the human vitamin D receptor | Potency, µM, for the others: max response, negative = inhibition, usual class: inhibitors | VDR-SRC2-3 peptide fluorescence polarization, 2 h | AID 504847 | P11473 | hit rate 0.93% among 400,000; active = well fitted inhibition curve with a large enough effect; inconclusive = small, poorly fitted or top-dose-only effect, or another doubt; inactive = no such curve, though single readings can be large or run the other way; also: series mostly up to about 120 µM
# Target sequence (P11473 whole entry, looked up): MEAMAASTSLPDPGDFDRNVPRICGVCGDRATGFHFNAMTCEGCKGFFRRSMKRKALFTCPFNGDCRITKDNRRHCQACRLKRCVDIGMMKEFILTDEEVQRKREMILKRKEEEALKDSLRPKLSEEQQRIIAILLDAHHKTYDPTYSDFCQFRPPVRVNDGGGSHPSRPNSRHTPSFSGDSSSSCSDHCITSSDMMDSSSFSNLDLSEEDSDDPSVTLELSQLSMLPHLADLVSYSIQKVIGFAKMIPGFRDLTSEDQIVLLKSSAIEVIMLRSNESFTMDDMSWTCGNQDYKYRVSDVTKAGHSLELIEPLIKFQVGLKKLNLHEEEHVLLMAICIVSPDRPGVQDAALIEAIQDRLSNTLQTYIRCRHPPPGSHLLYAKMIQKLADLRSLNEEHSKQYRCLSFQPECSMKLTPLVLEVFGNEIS
#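 Compounds are added to VDR with labelled SRC2-3 coactivator peptide and held 2 h at room temperature. Inhibition of the VDR–peptide interaction is then read as a change in fluorescence polarization.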
# Starred values were filed as active, the others as inactive; u = inconclusive; & = joins results of further samples; ! = a repeat was not active. % is scaled to controls: 0 for no effect and ±100 for the full control effect; potency is read from the fitted curve at half-maximal effect.
VDR inhibitor	Molecule
-21%	CCOC(=O)c1cnn(-c2ccccc2)c1NC(=O)C(F)(F)C(F)(F)C(F)(F)F
-2%	CCOC(=O)c1c(NC(=O)CN2CCCCC2)sc2c1CCN(C(=O)OCC)C2
7%	O=C(c1ccc2c(c1)OCO2)C1CCCN(Cc2c(F)ccc(F)c2F)C1 (centres undefined)
6%	CSc1ccc(CCNC(=O)Cn2c(C)c3cnn(-c4ccccc4)c(=O)c3c2C)cc1
-13%	Cc1cccc(NC(=O)CC(C)S(=O)(=O)c2ccc3c(c2)NC(=O)CO3)c1C (centres undefined)
6%	CC1CCCCC1NC(=O)Cn1cc([N+](=O)[O-])ccc1=O (centres undefined)
-3%	CCOC(=O)C1CCN(C(=O)NS(=O)(=O)c2ccc(C)cc2)CC1
-2%	CN(CC(=O)Nc1ccccc1C(F)(F)F)C(=O)c1cc2c(s1)CCCCC2
6%	O=C1C2CCCN2C(c2ccc(Cl)cc2)N1c1nccs1 (centres undefined)
7%	O=C(NCc1ccc(F)cc1)C1CCN(C(=O)c2ccc(-n3ccc4ccccc43)s2)CC1
13%	CN(C)S(=O)(=O)c1ccc(N2CCCC2)c(C(=O)N2CCN(c3ccc([N+](=O)[O-])cc3)CC2)c1
-10%	Cc1cccc2c1c(N=NC(N)=S)c(O)n2C1OC(CO)C(O)C(O)C1O (centres undefined)
7%	Cc1ccc(S(=O)(=O)N2CCC(C(=O)N/N=C/c3cccn3C)CC2)cc1
6%	CCOc1ccc(C(c2c(C)[nH][nH]c2=O)c2c(C)[nH][nH]c2=O)cc1OC
-11%	N#Cc1ccc(CN2CCN(CC(=O)Nc3ccccc3C(=O)NC3CC3)CC2)cc1
10%	Cc1ccc(C)c(N2CCN(C(c3ccccc3)c3nnc(-c4ccccc4F)o3)CC2)c1 (centres undefined)
10%	COc1ccccc1C1CC(=O)NC(C)=C1C(=O)OC(C)C (centres undefined)
-2%	Cc1ccc(CNC(=O)c2oc3ccc(S(=O)(=O)N4CCC5(CC4)OCCO5)cc3c2C)cc1
3%	CCn1c(SCC(=O)N(C)CC(=O)Nc2ccc(OC)cc2)nnc1-c1ccco1
0%	Cc1c(CN2CCCCC2C)c(=O)n(-c2ccccc2)n1C (centres undefined)
-1%	CCOC(=O)N1CCC(N(CCCOC)C(=O)Nc2ccc(CC)cc2)CC1
-1%	CC1/C(=N/O)CC(c2ccccc2)N(C)C1c1ccccc1 (centres undefined)
-8%	CN1C(=O)/C(=C/c2ccccc2OCc2ccc(F)cc2)N(C)C1=S
45µM*	O=C(/C=C/c1cccnc1)c1ccc(F)c(F)c1
89µM*!	Cc1cccc(NC(=S)N/C(=N/S(=O)(=O)c2ccccc2)c2ccccc2)c1
18%	CCCNS(=O)(=O)c1ccc(CCC(=O)N2CCOCC2)cc1
-3%	COc1ccc(CCNC(=O)C(C)n2nc(C)n3c(cc4occc43)c2=O)cc1OC (centres undefined)
-2%	Cc1ccc(NC(=S)N=Nc2c(O)[nH]c3ccccc23)cc1
5%	COc1ccc(S(=O)(=O)Nc2ccccc2)cc1
3%	CCOc1cc(N2CCOCC2)c(OCC)cc1NC(=O)CN1C(=O)N(C)C2(CCCCC2)C1=O
0%	O=C(CCN1CCOCC1)NNC(=O)c1ccc(Cl)c([N+](=O)[O-])c1
20%	Cc1cc(OCC(=O)NCC2(N(C)C)CCCCC2)cc(C)c1Cl
-14%	Cc1cc(C(=O)N/N=C/c2sccc2C)no1
6%	Cc1c(Cl)ccc2c(C(=O)NCCCn3nccc3C)cc(-c3ccccn3)nc12
-3%	Cc1ccc(CNC(=O)C2CCC(=O)N(C3CC3)C2)cc1 (centres undefined)
u	COc1ccccc1-c1noc(COC(=O)c2ccc(Br)o2)n1

# Copied from the list:
# Under VDR inhibitor, `CCCNS(=O)(=O)c1ccc(CCC(=O)N2CCOCC2)cc1` is listed with 18%
# Under VDR inhibitor, `COc1ccc(CCNC(=O)C(C)n2nc(C)n3c(cc4occc43)c2=O)cc1OC` (centres undefined) is listed with -3%

# Next part
VDR inhibitor	Molecule
-4%	Cc1ccccc1Nc1nc(N)nc(CCl)n1
5%&6%	CCCN(CCC)CCNC(=O)c1cc2c(-c3ccccc3F)nn(C)c2s1
-1%	O=C(O)CCCCCN1C(=O)CSC1=S
19%	Cn1cc(S(=O)(=O)c2cccc(Cl)c2)c(=O)c2cc(F)c(N3CCN(c4ccccc4)CC3)cc21
22%	CCn1c(C)c(C(C)=O)c(N2CCN(c3ccccc3)CC2)nc1=S
-17%	O=C(Nc1ccccc1-c1nnc(SCc2ccc(Cl)cc2Cl)o1)c1ccccc1
10%	Nn1cnc2cc3ccccc3cc2c1=O
-16%	CCc1nn(C)c2c(=O)c(=O)c2n(C)[nH]1
4%	CC(NC(=O)c1cccs1)C(c1cccs1)N1CCOCC1 (centres undefined)
-10%	CC(C)S(=O)(=O)c1csc(NC(=O)Nc2cc(Cl)ccc2Cl)c1Cl
-10%	CCCC(CCC(=O)NC1CCCCC1)C(=O)O (centres undefined)
u	COc1ccc(CCNC(=O)c2ccc3c(c2)N(Cc2ccc(F)cc2)CCS3)cc1OC

# By substructure: those above with a nitro group on carbon (three)
VDR inhibitor	Molecule
6%	CC1CCCCC1NC(=O)Cn1cc([N+](=O)[O-])ccc1=O (centres undefined)
13%	CN(C)S(=O)(=O)c1ccc(N2CCCC2)c(C(=O)N2CCN(c3ccc([N+](=O)[O-])cc3)CC2)c1
0%	O=C(CCN1CCOCC1)NNC(=O)c1ccc(Cl)c([N+](=O)[O-])c1

# (continued)
VDR inhibitor	Molecule
-8%	CC(=O)Nc1ccc(NC(=O)CCC(=O)OCC(=O)c2ccc(C)c([N+](=O)[O-])c2)cc1
-5%	O=C(CCc1nc(-c2ccccc2)c(-c2ccccc2)o1)OCc1ccc(Br)cc1
-29%	COc1cccc(-n2c(-c3ccco3)nc3c(cnn3-c3ccccc3C)c2=O)c1
2%	O=C(NCc1ccccc1)C1CC2CCCC(C1)C2=O (centres undefined)
-5%	Cn1c(CCc2ccccc2)nnc1SCC(N)=O
15%	COc1ccc2c(C(=O)NCc3ccc4c(c3)OCO4)c(-c3ccc(S(C)(=O)=O)cc3)sc2c1
10%	CN(C)/C=C(/C(=O)c1ccc(Cl)cc1Cl)S(=O)(=O)c1ccccc1
6%	O=C(Nc1ccccc1)OC(CN1CCCCC1)C(F)(F)F (centres undefined)
-16%	CC(C)(O)/C=C/C[C@](C)(O)C1CC[C@]2(C)C1[C@H](O[C@H]1O[C@@H](CO)[C@H](O)[C@@H](O)[C@@H]1O)CC1[C@@]3(C)CC[C@H](O)C(C)(C)C3[C@@H](O)C[C@]12C (some centres undefined)
-8%	CC(C)OP(=O)(OC(C)C)C(O)c1ccc(N(C)C)cc1 (centres undefined)
-16%	COc1ccc(N2CCN(C(=O)c3cccs3)CC2)cc1
-5%	CC(C)c1ccc(Nc2cc(C(=O)NCCc3ccccc3)c3ccccc3n2)cc1

# Laid out differently: entries from further up
O=C(/C=C/c1cccnc1)c1ccc(F)c(F)c1
  VDR inhibitor = 45µM*
Cc1cccc(NC(=S)N/C(=N/S(=O)(=O)c2ccccc2)c2ccccc2)c1
  VDR inhibitor = 89µM*!

# (list continues)
VDR inhibitor	Molecule
-4%	CC(C)(C)c1ccc(NC(=S)NCCc2ccccn2)cc1
1%	Cc1ccc(OCC(=O)O/N=C(\N)Cc2cccs2)cc1C
-1%	Cc1cc(=O)[nH]c(SCC2COC3(CCCCC3)O2)n1 (centres undefined)
-14%	O=C(Nc1cc(C(F)(F)F)ccc1Cl)c1cc2nc3c(c(C(F)(F)F)n2n1)CCCC3
3%	COc1ccc(S(=O)(=O)N2CCC(C(=O)NCc3ccco3)CC2)cc1C
15%	O=C(Cn1ncc2c3ccccc3n(Cc3cccc(Cl)c3)c2c1=O)NCCC1=CCCCC1
2%	Cc1cc(C)nc(N(C#N)Cc2ccc(Br)cc2)n1
-1%	CCNc1nc2c(c(=O)n(C)c(=O)n2C)n1Cc1ccc(Cl)cc1
7%	CNS(=O)(=O)c1cc(NC(=O)CCCNC(=O)c2ccc(Cl)cc2)ccc1C
-17%	CC(C)(C)c1ccc(/C=C/C(=O)Nc2nncs2)cc1
u	CCn1c(=O)cc(OCC(=O)N(C)c2cc(Cl)ccc2C)c2ccccc21
5%	O=C(Cn1cnc2ccccc2c1=O)N/N=C/c1ccc(Br)cc1
-18%	Cc1ccc(NC(=S)N2CCSC2c2cccs2)cc1 (centres undefined)
12%	CCC(C(=O)NCCc1cc(OC)ccc1OC)n1nc(C)c2c(C)n(-c3ccccc3)nc2c1=O (centres undefined)
22%	Cc1ccc(C(=O)Nc2nccs2)cc1S(=O)(=O)N1CCCCC1
-13%	COc1ccc(Oc2cc(NN3CCCCC3)c([N+](=O)[O-])cc2[N+](=O)[O-])cc1OC
4%	Cc1ccc(/C=N/NC(=O)c2cc(C3CC3)nc3ccccc23)o1
7%	CCOc1ccccc1CNC(=O)C(CC)n1nc(C)c2c(C)n(-c3ccccc3)nc2c1=O (centres undefined)
-28%	CC(C)(C)C(=O)Nc1cccc(C(=O)c2cccc(NC(=O)C(C)(C)C)c2)c1
6%	Cc1cc(C)cc(N2C(=O)CC(N3CCOCC3)C2=O)c1 (centres undefined)
0%	Cc1ccccc1-n1ncc(C(C)NS(=O)(=O)c2ccccc2Cl)c1C (centres undefined)
-8%	CCOCCCNC(=O)C(c1ccccc1)N(Cc1cccs1)C(=O)c1ccccc1O (centres undefined)
18%	COc1ccc(CCN2C(=S)N(C)C(=O)C2CC(=O)Nc2ccc(OC)cc2)cc1 (centres undefined)
-10%	CC(Sc1ccsc1[N+](=O)[O-])C(=O)NCc1ccco1 (centres undefined)
-3%	CCOC(=O)N1CCC(NC(=O)c2ccc(N3CCC4(CC3)OCCO4)c([N+](=O)[O-])c2)CC1
-8%	COc1ccc(CC(=O)Nc2ccc(-c3noc(-c4ccccc4OC)n3)cc2)cc1
-1%	CCOC(=O)C1NN=C(C(=O)c2ccccc2)C1c1ccc(OC)cc1 (centres undefined)
-18%	CN(Cc1ccccc1)C(=O)c1cccc(NC(=O)Cc2ccc(NC(=O)C3CCN(C(=O)C4CCC4)CC3)cc2)c1
6%	COc1ccc(Nc2cc(C(=O)NCCCN(C)Cc3ccccc3)c3ccccc3n2)cc1
-21%	COc1cc(/C=C/C(=O)OCC(=O)NCC2CCCCC2)ccc1O
-10%	CCOC(=O)c1c(-c2ccccc2)csc1NC(=O)c1nn(CC)cc1Br
0%	CCN(CC)S(=O)(=O)c1ccc(N2CCCC2)c(NC(=O)C2CSC3(C)CCC(=O)N23)c1 (centres undefined)
12%	O=C(O)c1ccc2cccc(O)c2n1
9%	CCO/N=C(\C)c1c(O)c(CC)c(-c2ccccc2)n(-c2ccccc2)c1=O
5%	CCCN(CC(=O)Nc1ccccc1C)C(=O)C1CCN(S(=O)(=O)c2ccccc2C(F)(F)F)CC1
-4%	Cc1ccc(NC(=O)CSc2nc3[nH]ncc3c(=O)[nH]2)cc1
-27%	COc1cc(C2c3c(oc4ccccc4c3=O)C(=O)N2c2nncs2)cc(OC)c1OC (centres undefined)
7%	Cc1ccc(/C=N/n2c(-c3cccc(Cl)c3)n[nH]c2=S)o1
11%	O=C(Cn1c(=O)oc2cc(S(=O)(=O)N3CCCC3)ccc21)Nc1ccccc1Br
8%	CCCC(=O)c1ccc(N2CCCCC2)c(F)c1
-2%	COc1ccc(-c2ccccc2)cc1NCc1ccccc1C
-5%	COc1ccc(C)cc1NC(=O)CN(Cc1nnc(-c2ccc(Cl)cc2)o1)C1CCCC1
8%	Cc1cccc(-n2nnnc2SCC(=O)c2cc(C)n(Cc3ccco3)c2C)c1
6%	Cc1ccc(C)c(SCC(=O)NNC(=O)c2csc(N3CCOCC3)n2)c1
-17%	CC1(C)NC(=O)N(CCOCCOc2ccccc2)C1=O
-21%	CCN1CCN(C(=O)c2ccc3c(c2)N(Cc2ccc(Cl)cc2)C(=O)c2ccccc2S3(=O)=O)CC1
16%	CCc1nnc(NC(=O)OCc2ccccc2)s1
-7%	O=C(NC1CCCC1)C(c1cc2c(cc1[N+](=O)[O-])OCO2)N1CCCC1 (centres undefined)

# The final 2 entries of the part above lead into the next.
VDR inhibitor	Molecule
16%	CCc1nnc(NC(=O)OCc2ccccc2)s1
-7%	O=C(NC1CCCC1)C(c1cc2c(cc1[N+](=O)[O-])OCO2)N1CCCC1 (centres undefined)
u	CN(/N=C/c1ccccc1)C(=S)c1ccccc1
-1%	Cc1ccc(C)c(C2=CSC3=NCCN23)c1
1%	COc1ccc(NC(=O)Cc2nnc(SCC(=O)c3ccc(F)cc3)n2C)cc1
-17%	COc1ccc(-c2c(C)nn3c(C)cc(C)nc23)cc1
-9%	Cc1cc(C)n(-c2ccc(NC(=O)C3CCCCN3Cc3cccc4c3OCO4)cc2)n1 (centres undefined)
2%	O=C(Oc1ccc2cccc(OC(=O)N3CCOCC3)c2c1)N1CCOCC1
3%	O=C(NCCN1CCOCC1)c1ccc(N2CCCC2)c([N+](=O)[O-])c1
-5%	COc1ccccc1NC(=O)CC1Sc2ccc(C(F)(F)F)cc2NC1=O (centres undefined)
1%	Cc1nn(CC(=O)NCc2cccs2)c(=O)c2nn(-c3ccccc3)c(C)c12
-11%	COc1ccc(COCC(O)CN(Cc2ccco2)Cc2ccccc2O)cc1 (centres undefined)
-4%	CCOC(=O)c1sc(NC(=O)c2ccco2)nc1C
-4%	C=CCn1nnnc1SCC(=O)Nc1cccc(C(F)(F)F)c1
17%	CCOC(=O)Cc1csc(NC(=O)CSc2nnc(-c3ccncc3)o2)n1
10%	Cc1cc2c(OCC(O)CN3CCCCC3)cccc2[nH]1 (centres undefined)
11%	Cc1cccc(Cn2cc3c(=O)n(CC(=O)Nc4cccc(C)c4C)nc-3c3cc(F)ccc32)c1
3%	COc1ccc(C(=O)N/C(=C/c2cccnc2)C(=O)N2CCOCC2)cc1OC
-4%	O=C(COC(=O)c1cc(=O)[nH]c2ccccc12)Nc1ccc(Cl)cn1

# An excerpt; rates above refer to the full screens.
